# miR-21 FLuc: miR-21 reporter, rising signal; HeLa miR-21 FLuc reporter, luciferase, 48 h; Potency, µM (series often up to 38.3 µM), inactives show top-dose reporter change, positive = more light; 340,000 tested, under 10 active; active = well fitted rising curve with a large enough effect; inconclusive = small, poorly fitted or top-dose-only effect; inactive = no such curve, though single readings can be large or run the other way;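 also: % of control where 0% means no effect; miR-21 action dims this reporter so a rising signal means less miR-21 action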
#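 HeLa miR-21-FLuc reporter line, endogenous miR-21; 2000 cells/well in DMEM/10% FBS; compound titration up to ~40uM final, 48 h, 37 degree Celsius; luciferase detection reagent, 15 min lysis, CCD luminescence.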
# Rango dissoc inh: inhibition of RanGTP-driven Rango-importin beta dissociation; Biochemical FRET Rango-importin beta, RanGTP-induced dissociation; Potency, µM (top dose mostly 46.1 µM), without a hit: at the top dose activity change, negative = inhibition; AID 540253; actives 0.071% (n = 340,000); active means falling FRET ratio curve, often poorly fitted, with flat reads before Ran was added; inconclusive means other falling curves, or compound fluorescence or quenching; inactive means flat or rising ratio curve;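 also: potency is read from the fitted curve at half-maximal effect; % of control where 0% means no effect; nearly all actives have a fitted effect of over 45% in size; -100% = wells without RanGTP and RCC1; the record marks most hits as doubtful in a second field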
#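 Compounds preincubate 5 min with complex of recombinant Rango and importin beta in PBS with 1 mM DTT. Ran (0.6 uM) loaded with 2 mM GTP plus 0.2 uM RCC1 starts dissociation; FRET is recorded 45 min later.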
# Rango-impB inh: Rango-importin beta binding inhibition. Q14974. Rango CFP/YFP FRET sensor + importin beta, 45 min. Potency, µM (doses to about 92.2 µM), inactives show at the highest dose inhibition of complex formation. actives 0.031% (n = 340,000); active = rising FRET ratio curve, often small or poorly fitted; inconclusive = mostly compound fluorescence or quenching in the first reads; inactive = flat curves in all reads;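 also: potency is read from the fitted curve at half-maximal effect; 0% = DMSO wells and 100% = buffer wells lacking importin beta; nearly all actives have a fitted effect of over 15% in size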
# Target sequence (Q14974 whole entry, looked up): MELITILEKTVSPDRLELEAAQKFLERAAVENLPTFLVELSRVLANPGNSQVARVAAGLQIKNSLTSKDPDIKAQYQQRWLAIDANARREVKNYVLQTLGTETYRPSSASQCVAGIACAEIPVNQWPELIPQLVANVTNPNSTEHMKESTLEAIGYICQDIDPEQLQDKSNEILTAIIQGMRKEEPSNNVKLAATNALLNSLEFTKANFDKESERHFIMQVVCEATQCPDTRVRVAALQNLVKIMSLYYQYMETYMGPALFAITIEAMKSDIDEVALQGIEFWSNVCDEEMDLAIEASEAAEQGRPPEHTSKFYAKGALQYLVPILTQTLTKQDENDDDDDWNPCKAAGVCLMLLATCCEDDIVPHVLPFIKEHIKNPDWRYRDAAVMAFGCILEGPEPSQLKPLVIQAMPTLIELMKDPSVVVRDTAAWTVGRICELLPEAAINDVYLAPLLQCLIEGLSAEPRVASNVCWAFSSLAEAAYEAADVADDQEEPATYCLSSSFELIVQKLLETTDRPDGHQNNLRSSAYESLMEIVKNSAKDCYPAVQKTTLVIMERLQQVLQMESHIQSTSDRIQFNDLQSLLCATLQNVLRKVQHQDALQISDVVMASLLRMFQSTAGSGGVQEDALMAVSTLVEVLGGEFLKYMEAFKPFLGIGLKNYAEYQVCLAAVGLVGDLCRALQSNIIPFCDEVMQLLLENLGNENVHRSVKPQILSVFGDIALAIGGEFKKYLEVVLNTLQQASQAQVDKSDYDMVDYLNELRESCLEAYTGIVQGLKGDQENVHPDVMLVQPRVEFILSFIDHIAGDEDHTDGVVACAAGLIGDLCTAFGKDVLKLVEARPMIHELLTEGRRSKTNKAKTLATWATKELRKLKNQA
#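 FRET biosensor (snurportin 1 IBB flanked by EYFP and cerulean), 50 nM, with compound 5 min, then 0.125 microM importin beta in PBS, 1 mM DTT, 0.02% Tween-20, 0.1% BSA. CFP/YFP ratio read after 45 min at room temperature; pre-read flags interference.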
# GLA inh pH 4.5: inhibitors of human alpha-galactosidase A at pH 4.5 | purified enzyme, 4-MU-alpha-Gal fluorescence, pH 4.5 | P06280 | activity change, negative = inhibition, % at 105 µM | 230,000 tested, under 10 active; inconclusive = small, poorly fitted or top-dose-only inhibition, or a rising curve; inactive = flat fitted curve, though single readings scatter; no compound was filed as active;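 also: 0% = full activity with enzyme and -100% = basal without enzyme; dose as in the result columns while the protocol names 77 µM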
# The depositor's hits bear a star; u = inconclusive; x = no result given. The list is partial; the hit share may differ from the screen's.
Compound,miR-21 FLuc,Rango dissoc inh,Rango-impB inh,GLA inh pH 4.5
Cn1c(=O)[nH]c(=O)c2c1nc(SCC(=O)O)n2CCOc1ccccc1,-1.8%,20.8%,0.2%,x
Cc1ccc(/C(N)=N/OC(=O)/C=C/c2ccccc2)cc1,-23.3%,-6.7%,-0.9%,-5.4
Cc1ccccc1CSCCC(=O)NCCc1ccccc1,-5.9%,15.6%,2.3%,7.1
CNC(=O)Nc1cc(C)nn1C,-2.6%,4.3%,-1.4%,10.6
O=[N+]([O-])c1c(NCCO)cc(Sc2nc3ccccc3s2)c2nonc12,u,-16.8%,u,u
CC1CCN(C(=O)c2ccc(NC(=O)CC3SC(N4CCCC4)=NC3=O)cc2)CC1 (stereo not given),x,-6.2%,-3.3%,x
O=C1CCCCCCCCCC/C(=N\O)CCCO1,x,-12.5%,-3.7%,x
CC1=C(C(=O)OCC2CCCO2)C(c2ccccc2)C2=C(CC(C)(C)CC2=O)N1 (stereo not given),0.9%,u,u,17.3
Cc1ccc(O)c(N=CC2=C(O)c3ccccc3C2=O)c1,-47.7%,-6.7%,9.9%,7.1
CC1CCCC(C)N1C(=O)CSc1nc(N)c(-c2ccccc2)c(=O)[nH]1 (stereo not given),1.0%,-5.2%,0.8%,-1.4

# Structures shown so far with an NH in an aromatic ring, in the order listed:
Compound,miR-21 FLuc,Rango dissoc inh,Rango-impB inh,GLA inh pH 4.5
Cn1c(=O)[nH]c(=O)c2c1nc(SCC(=O)O)n2CCOc1ccccc1,-1.8%,20.8%,0.2%,x
CC1CCCC(C)N1C(=O)CSc1nc(N)c(-c2ccccc2)c(=O)[nH]1 (stereo not given),1.0%,-5.2%,0.8%,-1.4

# The results go on:
Compound,miR-21 FLuc,Rango dissoc inh,Rango-impB inh,GLA inh pH 4.5
CCOc1cc(C(=O)Nc2ccc(S(=O)(=O)Nc3cc(C)on3)cc2)cc(OCC)c1OCC,-6.4%,2.3%,1.2%,0.8
Cn1c(=O)c2c(nc(CN3CCN(c4ccccc4)CC3)n2CCCc2ccccc2)n(C)c1=O,x,-3.2%,-0.9%,x
CCc1ccc(CN(C)C(=O)C2=CC=CN3CCS(=O)(=O)N=C23)cc1,x,-12.2%,3.1%,x
CC(C)NC(=O)c1ccc(CSCc2ccccc2Cl)o1,-3.7%,3.8%,5.7%,x
CCNC(=O)n1nccc1C(C)Oc1ccc(Cl)cc1 (stereo not given),-1.2%,9.2%,u,-2.3
CCCNC(=O)Cc1ccsc1,-11.2%,-21.4%,-2.7%,7.1
COCCNC(=O)CSc1ccc(C)cc1,-7.3%,1.4%,1.5%,3.5
O=C(CN(C(=O)CCC(=O)Nc1nccs1)c1cccc(F)c1)NCc1ccccc1,5.4%,-21.1%,0.0%,x
CC(=O)c1cccc(NC(=O)CCc2nc3sc4c(c3c(=O)[nH]2)CCCC4)c1,x,-10.3%,u,x
N#C/C(=C/c1ccc(-c2cc(C(=O)O)cc(C(=O)O)c2)o1)c1nc2ccccc2s1,0.8%,x,x,-2.9
C=CCn1c(SCc2cc(C(=O)OC)c(C)o2)nnc1-c1ccncc1,-1.6%,-1.1%,-0.6%,2.4
CCc1ccc(NC(=O)c2cc(C)no2)cc1,-43.9%,8.1%,0.9%,x
CCCC(=O)Nc1c2c(nn1-c1ccc(F)cc1)CS(=O)(=O)C2,-5.1%,0.1%,0.2%,x
CCc1nnc(NC(=O)/C=C/c2ccc(C)o2)s1,-53.3%,-8.0%,-0.3%,-4.7
Fc1ccc(NC(=S)N2CCN(c3ccccn3)CC2)cc1Cl,x,8.9%,-1.8%,x
C[C@@H](C(=O)OCC(=O)c1ccc(F)c(F)c1)N1C(=O)C2CCCCC2C1=O (stereo not given in full),x,2.8%,-2.6%,x
Cc1c(-c2n[nH]c(=S)n2-c2ccc(Br)cc2)nnn1-c1ccc(Cl)cc1,-13.6%,-8.4%,-5.3%,-10.2
CC(=O)c1ccc(C(=O)Nc2ccc3c(c2)C(=O)NC3=O)cc1,1.5%,-2.5%,-0.5%,x
CCOc1ccc(NC(=O)CN2CCN(CC(=O)Nc3ccc(N(C)C)cc3)CC2)cc1,0.0%,-7.0%,2.6%,x
Nc1cccc(-c2nnc3n2CCCCC3)c1,0.5%,7.2%,0.0%,2.3
CCn1c(SCc2nc3cc(OC)c(OC)cc3c(=O)[nH]2)nnc1-c1ccncc1,7.8%,-6.2%,0.5%,-8.5
Cc1cc2oc(C(=O)Nc3ccc(S(=O)(=O)Nc4nccs4)cc3)cc(=O)c2cc1Cl,-7.3%,-3.6%,-2.7%,-9.6
O=C(Cc1ccccc1)Nc1cc2c(cc1Cl)OCCCO2,-58.8%,-7.6%,-0.1%,x
O=C(CSc1nnc(COc2ccccc2)o1)N1CCCCC1,-7.7%,-2.7%,1.1%,x
COC(=O)Cn1c2ccc(F)cc2c2nc(C)sc21,-5.8%,27.8%,-0.2%,0.6
CNC(=O)c1sc(-c2ccccn2)nc1C,-8.5%,13.3%,0.5%,-2.5
O=C(CN1CCC(NC(=O)c2ccccc2)CC1)NCc1ccccc1F,-6.3%,0.6%,-0.3%,-13.5
Cc1ccc(S(=O)(=O)Nc2cccc3c2O[C@H](CN(C)Cc2ccc(-c4ccccc4)cc2)[C@@H](C)CN([C@H](C)CO)C3=O)cc1,x,-5.0%,0.6%,x
COc1ccc(CCNC(=O)c2ccc(-c3ccc([N+](=O)[O-])cc3Cl)o2)cc1OC,u,-3.2%,-0.1%,-8.9
CSc1ccc(S(=O)(=O)NCC(=O)OCC(=O)NCc2ccco2)cc1[N+](=O)[O-],x,0.0%,u,x

# Copied from the results shown (14 entries):
Compound,miR-21 FLuc,Rango dissoc inh,Rango-impB inh,GLA inh pH 4.5
Cc1c(-c2n[nH]c(=S)n2-c2ccc(Br)cc2)nnn1-c1ccc(Cl)cc1,-13.6%,-8.4%,-5.3%,-10.2
CC(=O)c1ccc(C(=O)Nc2ccc3c(c2)C(=O)NC3=O)cc1,1.5%,-2.5%,-0.5%,x
CCOc1ccc(NC(=O)CN2CCN(CC(=O)Nc3ccc(N(C)C)cc3)CC2)cc1,0.0%,-7.0%,2.6%,x
Nc1cccc(-c2nnc3n2CCCCC3)c1,0.5%,7.2%,0.0%,2.3
CCn1c(SCc2nc3cc(OC)c(OC)cc3c(=O)[nH]2)nnc1-c1ccncc1,7.8%,-6.2%,0.5%,-8.5
Cc1cc2oc(C(=O)Nc3ccc(S(=O)(=O)Nc4nccs4)cc3)cc(=O)c2cc1Cl,-7.3%,-3.6%,-2.7%,-9.6
O=C(Cc1ccccc1)Nc1cc2c(cc1Cl)OCCCO2,-58.8%,-7.6%,-0.1%,x
O=C(CSc1nnc(COc2ccccc2)o1)N1CCCCC1,-7.7%,-2.7%,1.1%,x
COC(=O)Cn1c2ccc(F)cc2c2nc(C)sc21,-5.8%,27.8%,-0.2%,0.6
CNC(=O)c1sc(-c2ccccn2)nc1C,-8.5%,13.3%,0.5%,-2.5
O=C(CN1CCC(NC(=O)c2ccccc2)CC1)NCc1ccccc1F,-6.3%,0.6%,-0.3%,-13.5
Cc1ccc(S(=O)(=O)Nc2cccc3c2O[C@H](CN(C)Cc2ccc(-c4ccccc4)cc2)[C@@H](C)CN([C@H](C)CO)C3=O)cc1,x,-5.0%,0.6%,x
COc1ccc(CCNC(=O)c2ccc(-c3ccc([N+](=O)[O-])cc3Cl)o2)cc1OC,u,-3.2%,-0.1%,-8.9
CSc1ccc(S(=O)(=O)NCC(=O)OCC(=O)NCc2ccco2)cc1[N+](=O)[O-],x,0.0%,u,x

# Next compounds follow:
Compound,miR-21 FLuc,Rango dissoc inh,Rango-impB inh,GLA inh pH 4.5
CCCCn1c(N)c(N(C)C(=O)c2ccc(-n3cccn3)cc2)c(=O)[nH]c1=O,x,16.9%,-1.8%,x
Cc1ccccc1NC(=O)COC(=O)c1ccc2c(c1)OCCO2,x,0.9%,-1.1%,x
CC(=O)C1=C(O)CCC1=N,-7.0%,25.0%,-4.7%,8.5
COc1ccc(/C=C(/NC(=O)c2ccco2)C(=O)N2CCc3ccccc32)cc1OC,-3.5%,-20.2%,2.5%,-0.1
O=C(O)c1ccc(N2C(=O)CC(N3CCC(c4nc5ccccc5[nH]4)CC3)C2=O)cc1 (stereo not given),-1.6%,-7.1%,-1.3%,-13.1
O=C(NC1=NCCS1)c1cccs1,-8.4%,5.8%,-0.8%,0.3
CCOC(=O)C1=CN(Cc2ccco2)S(=O)(=O)N(CC)C1c1ccc(C(F)(F)F)cc1 (stereo not given),x,10.4%,2.7%,x
O=C(CC1C[C@H](C(=O)N2CCCCC2)[C@@]2(CCc3ccccc3)c3[nH]c4ccccc4c3CCN2C1=O)NCCCn1ccnc1 (stereo not given in full),x,20.0%,-0.4%,x
CC1=CN2C(=N)/C(=C\c3cn(CCCOc4ccccc4)c4ccccc34)C(=O)N=C2S1,-6.1%,u,u,-4.2
Cc1ccc(S(=O)(=O)N(CCO)c2cc3c(s2)CCCC3)cc1,0.0%,-4.8%,1.2%,-1.1
O=C(NNc1ccnc2cc(Cl)ccc12)C1CCCCC1,16.6%,22.0%,-2.6%,-9.1
Cc1cc(C)cc(NC(=O)CN2CCc3ccccc3C2)c1,-9.2%,1.7%,-0.5%,-2.7
COc1ccc(N(C(=O)C(C)C)S(=O)(=O)c2cccc3cccnc23)cc1,-13.7%,28.4%,-2.8%,3.9
CS(=O)(=O)N(CC(=O)N1CCc2ccccc2C1)c1ccc(Cl)cc1F,-4.1%,0.0%,-0.6%,x
CC(C)c1nnc(NC(=O)CCC(=O)NCc2ccc3c(c2)OCO3)s1,-4.8%,20.9%,-1.4%,-4.1
O=C(O)CCC(=O)N1CCN(c2ccccn2)CC1,-3.6%,-3.8%,2.1%,9.2
CC(C(=O)NC1CCCCC1)N(Cc1ccccc1)C(=O)c1snc(C(N)=O)c1N (stereo not given),-4.3%,4.0%,-3.6%,x
Cc1c(NC(=O)c2ccc(COc3ccc4ccccc4c3)o2)c(=O)n(-c2ccccc2)n1C,-21.0%,-14.0%,0.2%,1.3
Cc1[nH]nc2c1C1(CCOC1C)C(C#N)=C(N)O2 (stereo not given),-2.5%,-1.2%,2.3%,3.6
COc1ccc(NC(=O)CSc2nc3ccc(OC)cc3[nH]2)cc1,-13.2%,5.4%,-1.3%,1.9
Cc1ccc[n+](CC(=O)Nc2ccc(N(C)C)cc2)c1,1.5%,-15.0%,-1.8%,x
O=C1c2ccccc2S(=O)(=O)c2cc(C(=O)N3CCC(N4CCCC4)CC3)ccc21,x,13.2%,-2.8%,x
CCOc1cccc(-c2nn3c(-c4cc(C)[nH]n4)nnc3s2)c1,-15.7%,22.9%,2.1%,-0.3
FC(F)(F)c1ccccc1CN1CCN(C2CCCCCC2)CC1,0.8%,-18.3%,-0.5%,0.9
COc1ccccc1NC(=O)Cn1nnc(-c2ccccc2NC(=O)c2ccco2)n1,0.3%,14.2%,3.5%,-3.4
COc1ccc(C2c3c(ncn(CCCO)c3=N)Oc3ccc4ccccc4c32)cc1 (stereo not given),-3.2%,-10.5%,0.5%,-12.9
Cc1c(C(=O)O)sc2c1c(=O)n(Cc1ccccc1)c(=O)n2C,-0.8%,0.6%,-0.1%,x
Cc1cccc(NC(=O)c2cccc3c2C(=O)c2ccccc2-3)c1,1.9%,10.6%,-2.4%,-3.5
CC(C(=O)Nc1nnc(C2CC2)s1)N1C(=O)C2CC=CCC2C1=O (stereo not given),x,-2.8%,-2.6%,x
CCOc1ccc(N2C(=O)CC(N3CCC(O)(c4ccc(Br)cc4)CC3)C2=O)cc1 (stereo not given),5.3%,-0.3%,-4.5%,-5.7
CCc1ccc(NC(=O)CSc2nc3ccccc3nc2N2CCCCC2)cc1,-14.9%,-2.6%,-0.3%,x
O=C(Nc1ccc(C(=O)O)cc1)/C(=C\c1cccc([N+](=O)[O-])c1)NC(=O)c1ccc(Br)o1,-0.5%,-26.3%,-3.8%,6.0
CCOc1ccc(NC2c3ccccc3C(=O)N2c2ccc(Cl)cn2)cc1 (stereo not given),-35.1%,6.0%,0.8%,4.5
